High-throughput results deposited in PubChem by National Center for Advancing Translational Sciences (NCATS).
TRPML1 blocker – qHTS for Inhibitors of the Human Mucolipin Transient Receptor Potential 1 (TRPML1); AID 624415, 2012; TRPML1-inducible cells, Ca2+ dye fluorescence, FDSS; hits give low values; inhibition of EC80 agonist-evoked calcium signal; activity change, negative = inhibition, % (test concentration not listed); 390,000 tested, 0.02% active; Mucolipin-1 (Homo sapiens), Q9GZU1; in the data active means activity change below about -50%; inconclusive means about -30% to -50%; inactive means above about -30%;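 note: stimulus is agonist 54-4 at its EC80 concentration; % is set by controls: 0 for no effect and ±100 for the full control effect; compound concentration not given in the record; the text of the record puts the active cut at -80%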
Target sequence (Q9GZU1 whole entry, looked up): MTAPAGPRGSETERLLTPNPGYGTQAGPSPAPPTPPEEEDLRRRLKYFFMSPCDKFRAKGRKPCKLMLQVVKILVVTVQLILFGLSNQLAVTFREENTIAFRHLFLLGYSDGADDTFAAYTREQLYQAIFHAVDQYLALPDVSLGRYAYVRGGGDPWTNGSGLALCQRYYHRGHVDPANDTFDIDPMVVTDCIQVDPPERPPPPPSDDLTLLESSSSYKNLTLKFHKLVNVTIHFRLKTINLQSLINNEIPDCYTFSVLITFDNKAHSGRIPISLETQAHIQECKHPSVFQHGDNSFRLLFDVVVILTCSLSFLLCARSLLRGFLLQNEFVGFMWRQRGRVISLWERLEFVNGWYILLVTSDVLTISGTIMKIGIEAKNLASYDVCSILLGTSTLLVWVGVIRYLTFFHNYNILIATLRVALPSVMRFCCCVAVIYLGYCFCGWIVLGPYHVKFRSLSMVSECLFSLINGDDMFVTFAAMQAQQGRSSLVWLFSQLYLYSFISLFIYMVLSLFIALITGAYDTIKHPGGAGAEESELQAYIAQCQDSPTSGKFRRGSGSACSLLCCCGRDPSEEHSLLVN
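Calcium fluorescence in TRPML1-DL cells induced overnight with Tet: a 110 s read after compound pin addition, then a 110 s antagonist read after challenge with 54-4 at 4 uM final (EC80).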
D2 potentiator – Beta-Arrestin HTS for Positive Allosteric Modulators of the Human D2 Dopamine Receptor: Potentiators; D(2) dopamine receptor (Homo sapiens), P14416; 360,000 tested, 0.23% active; potentiation, % (no concentration beside the values); DiscoveRx D2 beta-arrestin cells, luminescence, 90 min; 100% = 57 uM dopamine signal; active = potentiation of 50% or more; inconclusive = 30% to 50%; inactive = 30% or less;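 note: compound concentration not given in the record; tested on top of an EC20 dose of dopamine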
Target sequence (P14416 whole entry, looked up): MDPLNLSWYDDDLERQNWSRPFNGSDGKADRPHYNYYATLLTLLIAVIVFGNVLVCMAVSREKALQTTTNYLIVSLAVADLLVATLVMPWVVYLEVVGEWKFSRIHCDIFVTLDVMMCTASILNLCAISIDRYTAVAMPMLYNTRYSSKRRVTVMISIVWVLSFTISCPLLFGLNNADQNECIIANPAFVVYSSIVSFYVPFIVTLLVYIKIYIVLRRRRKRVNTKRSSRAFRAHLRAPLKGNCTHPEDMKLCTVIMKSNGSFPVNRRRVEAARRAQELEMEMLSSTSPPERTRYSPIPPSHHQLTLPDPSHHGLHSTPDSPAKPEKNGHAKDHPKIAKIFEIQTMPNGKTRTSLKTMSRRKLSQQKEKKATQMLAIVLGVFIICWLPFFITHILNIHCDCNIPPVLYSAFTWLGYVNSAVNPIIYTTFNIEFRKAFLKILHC
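D2 cells co-treated with compound plus 50 nM dopamine (EC20) for 90 min at 37 deg C to detect potentiation. Beta-arrestin recruitment was read as enzyme-fragment luminescence after 1 h at ambient temperature. Full response was set by 57 uM dopamine.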
D2 agonist – Beta-Arrestin HTS for Positive Allosteric Modulators of the Human D2 Dopamine Receptor: Agonists. activation, % (no concentration beside the values). AID 624465, 2012. DiscoveRx PathHunter D2 beta-arrestin, luminescence, 90 min; 100% = 57 uM dopamine signal. 360,000 tested, 0.084% active; in the data active = activation above about 40%; inconclusive = about 15% to 40%; inactive = below about 15%; note: compound concentration not given in the record; the text of the record calls up to 30% inactive
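Agonist mode: compounds alone added to overnight-plated D2 PathHunter cells for 90 min at 37 C, with 57 uM final dopamine (EC100) defining full response. Beta-arrestin recruitment detected by chemiluminescent reagent, read after 1 h at ambient temperature.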
TRPML1 ag – qHTS for Agonists of the Human Mucolipin Transient Receptor Potential 1 (TRPML1) | Mucolipin-1 (Homo sapiens), Q9GZU1 | AID 624414, 2012 | activation, % (test concentration not listed) | 410,000 tested, 0.12% active | TRPML1-expressing cells, Ca2+ dye fluorescence, FDSS; host cell line not named in the record; reference of the full effect not given here; in the data active = activation above about 50%; inconclusive = about 30% to 50%; inactive = below about 30%; note: 0% is about no effect; the text of the record puts the active cut at 80%
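Cells: TRPML1-DL, 1X Tet inducer, ~16 h at 37 degrees C/5% CO2. Dye: ABD Ca8 no-wash + quencher, 45-90 min RT. Read: 10 s baseline, compound add, 110 s agonist phase; 54-4 EC80 (4uM final), 110 s antagonist phase.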
Six1-Eya2 blk – qHTS Assay for Inhibitors of the Six1/Eya2 Interaction | activity change, % (concentration not given with the values) | Homeobox protein SIX1 (Homo sapiens) + Protein phosphatase EYA2 (Homo sapiens), … | AlphaScreen GST-Six1/His-Eya2 binding, biochemical; hits give low values; control for the full effect not named in the record | 360,000 tested, 0.56% active; in the data active = activity change below about -65%; inconclusive = about -30% to -65%; inactive = above about -30%; note: % is set by controls: 0 for no effect and ±100 for the full control effect
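AlphaScreen luminescence read after one hour at 37 °C in darkness. Pin-transferred compounds met GST-Six1 and His-Eya2 protein (5X stock 250 nM/500 nM) plus glutathione donor and Ni-chelate acceptor beads (5X, 50 ug/mL).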
PINK1 modulator – A Quantitative High throughput Screen to Identify Chemical Modulators of PINK1 Expression; PINK1 immunofluorescence, high-content cytometry, 24 h; Potency, µM (series often up to 76.6 µM), without a hit: top-dose activation (PINK1 increase), most hits filed as activators; 410,000 tested, 0.2% active; AID 624263, 2012; active = well fitted activation curve with a large enough effect; inconclusive = small, poorly fitted or top-dose-only effect; inactive = flat fitted curve, though single readings scatter; cell line not stated here;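 note: potency is the fitted concentration of half-maximal effect; % of control where 0% means no effect; nearly all actives have a fitted effect of over 65% in size; a mitochondrial uncoupler was the plate control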
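Stable cell line, 250 cells/well, 12 h attachment; compounds pinned at 5 concentrations, 24 h; CCCP control. Fixed with nuclear dye, primary antibodies 12 h at 10 degrees C, secondary plus cell stain; laser-scanning cytometer read.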
* marks the source's active call; other numbers are inactive results; ? = inconclusive; · = not tested or not shown; [ ] = dose if it differs, or a comment.

| Structure | TRPML1 blocker | D2 potentiator | D2 agonist | TRPML1 ag | Six1-Eya2 blk | PINK1 modulator |
| --- | --- | --- | --- | --- | --- | --- |
| CCc1nc2ccc(C(=O)NCc3cccs3)cn2c1N(C)Cc1nccs1 | · | -1 | -4.5 | -0.8 | -5 | 0.8% |
| Cc1cccc(-c2c3c(=O)n(C)c(=O)n(C)c3cn2C(C)C)c1 | 2 | 5 | -0.3 | 3.5 | -12 | 17%[38.3 µM] |
| CC1CCC/C(=N\NC(=O)COc2ccc(Cl)cc2Cl)C1 (stereo unspecified) | -8 | -2 | 0.3 | -0.4 | 7 | 0.2% |
| COc1cccc(NS(=O)(=O)c2ccc3c(c2)N(C(C)=O)CCS3)c1 | 14 | -1 | -5.1 | -0.4 | 1 | 1.1% |
| c1ccc(Cn2nnnc2C(c2ccccc2)N2CCN(c3nc4ccccc4s3)CC2)cc1 (stereo unspecified) | -1 | -4 | -1.3 | -0.8 | -8 | 1.4% |
| CCNC(=O)CC1C(=O)N(CC)C(=S)N1NC(=O)c1ccc(Cl)cc1 (stereo unspecified) | 5 | -8 | -2.4 | -0.3 | 4 | 2.1% |
| NS(=O)(=O)c1cccc(NC(=O)CN2CCN(S(=O)(=O)c3ccc4c(c3)OCCO4)CC2)c1 | 15 | -10 | -0.6 | -0.7 | 10 | 1.7% |
| Cc1ccc(S(=O)(=O)NCCC(=O)NCc2ccc(Cl)cc2)cc1C | -11 | 1 | -1.6 | 0.5 | -2 | 1.2% |
| COCCn1c(SCC(=O)N2CCC(C)CC2)nc2ccccc2c1=O | 23 | -1 | 1.7 | 2.0 | 4 | 3.9%[38.3 µM] |
| COc1ccc(N2C(=O)C(Cl)=C(N3CCOCC3)C2=O)cc1 | -10 | -9 | -2.5 | -0.2 | -4 | -0.2% |
| C#CCN(CC=C)C(=O)c1ccc(OC2CCN(S(=O)(=O)N(C)C)CC2)cc1 | -8 | -2 | -2.7 | 0.1 | 0 | 1.9% |
| CCc1cc2c(-n3nc(C)cc3C)ncnc2s1 | 34 | -2 | -3.9 | 2.5 | 16 | 24%[38.3 µM] |
| CCOC(=O)c1sc(C)c(C(N)=O)c1NC1=NCCCCC1 | -3 | 10 | -0.5 | 3.0 | -2 | -0.8%[38.3 µM] |
| S=C(c1ccc2c(c1)OCO2)N1CCCCC1 | 1 | -18 | -3.1 | -0.7 | 2 | 0.5% |
| O=C(Nc1ccc(F)cc1)Nc1cccnc1 | 6 | -9 | 9.5 | 1.4 | -3 | -0.6% |
| COc1ccc(CCNC(=O)CC2Oc3ccc(Cl)cc3NC2=O)cc1OC (stereo unspecified) | 7 | -2 | -5.2 | 0.6 | 2 | 9.3% |

An excerpt from above, reduced to Six1-Eya2 blk, TRPML1 blocker and PINK1 modulator:
mol | Six1-Eya2 blk | TRPML1 blocker | PINK1 modulator
CCOC(=O)c1sc(C)c(C(N)=O)c1NC1=NCCCCC1 | -2 | -3 | -0.8%[38.3 µM]
S=C(c1ccc2c(c1)OCO2)N1CCCCC1 | 2 | 1 | 0.5%
O=C(Nc1ccc(F)cc1)Nc1cccnc1 | -3 | 6 | -0.6%
COc1ccc(CCNC(=O)CC2Oc3ccc(Cl)cc3NC2=O)cc1OC (stereo unspecified) | 2 | 7 | 9.3%

(further entries)
| Structure | TRPML1 blocker | D2 potentiator | D2 agonist | TRPML1 ag | Six1-Eya2 blk | PINK1 modulator |
| --- | --- | --- | --- | --- | --- | --- |
| COc1ccc(/C=N/NC(=O)C(Cc2c[nH]c3ccccc23)NC(=O)OCC(C)C)cc1[N+](=O)[O-] (stereo unspecified) | -9 | 4 | -3.5 | 1.2 | -11 | 0.7% |
| COc1ccccc1NS(=O)(=O)c1ccc(C(N)=O)cc1 | 7 | -6 | 2.1 | 0.8 | -6 | -0.5% |
| CCn1nc(C)c(/C=N/NC(=O)c2nc3nc(C)cc(C)n3n2)c1C | -4 | -4 | -1.5 | 4.3 | 0 | -0.8% |
| CN(C)CCN1C(=O)C(=O)/C(=C(/O)c2ccc(S(=O)(=O)N3CCOCC3)cc2)C1c1ccccc1 (stereo unspecified) | -10 | 3 | 0.2 | 0.5 | 0 | -1.4%[38.3 µM] |
| COc1ccc(-n2c(Cc3ccccc3)nnc2SCC(=O)N2CCCc3ccccc32)cc1 | 19 | -31 | -1.7 | 2.1 | -3 | -0.9% |
| O=C(Nc1c2c(nc3ccccc13)CCCC2)c1ccccc1Br | 5 | -2 | 0.5 | 0.6 | -1 | -0.3% |
| CCOC(=O)c1noc(C)c1C(=O)Nc1nccs1 | 4 | -3 | -2.6 | 0.6 | -20 | 3.1% |
| COc1ccc(OC)c(C2C3=C(COC3=O)Nc3cc4c(cc32)OCO4)c1 (stereo unspecified) | 26 | -6 | -1.6 | 2.5 | 0 | 6.7% |
| CC1Sc2ccc(C#N)cc2N(Cc2cccc(C(F)(F)F)c2)C1=O (stereo unspecified) | · | -2 | -6.0 | 8.8 | 6 | 0.5% |
| CCOC(=O)c1nc2ccc(C)cc2c2c1C1CC(c3c(Cl)cccc31)N2C(=O)OCc1ccccc1 (stereo unspecified) | -7 | -2 | -3.9 | 0.7 | -7 | 1.0% |
| CN1CCN(S(=O)(=O)c2ccc(NC(=S)NC(=O)C(C)(C)C)cc2)CC1 | -7 | -5 | 1.6 | 0.3 | 7 | -0.6% |
| Cc1nc2ccc(S(=O)(=O)NC(C(=O)N3CCN(c4cccc(Cl)c4)CC3)C(C)C)cc2s1 (stereo unspecified) | -4 | · | · | -0.7 | · | 2.3% |
| CCOC(=O)c1sc(NC(=O)Nc2ccccc2)cc1C | -13 | -11 | 3.2 | 1.6 | 0 | ? |
| CN(C)Cc1ccccc1C1(O)c2ccccc2CSc2ccccc21 (stereo unspecified) | 8 | -16 | -6.6 | 12 | 6 | 1.2% |
| Cc1c(CNCc2ccc(OC(C)C)cc2)c(C(=O)O)c(C)n1Cc1ccc(Cl)cc1 | 3 | · | · | 0.8 | · | 4.3% |
| CCOc1ccc(CNC(=O)C2CCN(S(=O)(=O)N3CCCCC3)CC2)cc1 | -12 | · | · | -0.5 | · | 1.0% |
| O=C(COc1ccccc1Cl)Nc1ccccc1C(=O)Nc1cccc(C(=O)O)c1 | 5 | -4 | -0.9 | -0.2 | -1 | 1.0% |
| O=C(NCCNc1ccc([N+](=O)[O-])cc1)c1cccc(Br)c1 | 4 | -5 | -5.8 | 0.1 | 2 | 12% |
| CCCC(CCC)C(=O)NC1CC(=O)N(c2ccc3c(c2)OCCO3)C1 (stereo unspecified) | -6 | · | · | -0.3 | · | 2.4% |
| CC(C)(C)OC(=O)NCCC(=O)N/N=C/c1ccc2ncccc2c1 | -10 | -4 | -3.4 | -0.1 | ? | -1.3% |
| O=C(C1CCC1)N1CCc2cc(S(=O)(=O)N3CCCCC3)ccc21 | 7 | -23 | -1.0 | -0.1 | -1 | 0.4% |
| CCc1nn2c(=O)cc(COC(=O)CNC(=O)c3ccccc3)nc2s1 | 17 | · | · | 0.4 | · | 0.6% |
| Cc1cccn2c(=O)c(C(=O)N3CCN(c4ccccc4)CC3)cnc12 | 0 | · | · | 0.9 | · | 1.4% |
| COc1ccc(Cc2nc3ccc(C(=O)NCCc4ccc(Cl)cc4)cc3o2)cc1 | 6 | · | · | 2.3 | · | 7.7% |
| COc1ccc(N2Cc3ccccc3C2=NC(=O)c2ccc(C)cc2)cc1OC | 5 | 4 | 2.2 | -0.8 | -5 | 1.8% |
| Cc1ccc(NC(=O)CSc2ncc(-c3ccccc3)n2C(=O)c2ccccc2)cc1 | -5 | -18 | -0.9 | 0.8 | -9 | 8.4% |
| Cc1c(C(=O)N2CCN(c3ncccn3)CC2)oc2c(Cl)cccc12 | 1 | -7 | 6.8 | -0.7 | 7 | 6.8% |
| O=C1CSC(=S)N1c1cccc(F)c1 | -9 | 0 | 0.8 | -0.2 | -1 | -0.1% |
| Cc1ccc(OCc2n[nH]c(=S)n2-c2ccc(Br)cc2)cc1 | · | -17 | -0.5 | · | 1 | 1.9% |
| COc1ccc(CNC(=O)c2cccc(NC(=O)c3ccccc3)c2)cc1 | -8 | -4 | 2.7 | 0.3 | -1 | 0.8% |
| CC(C)Sc1nnc([C@@H]2CCCN2C(=O)OC(C)(C)C)o1 | -12 | 4 | -3.4 | -0.4 | -2 | 1.5% |
| O=C(COC(=O)c1ccc(F)c(S(=O)(=O)N2CCOCC2)c1)NCc1ccc2c(c1)OCO2 | -10 | -4 | -3.2 | -0.6 | 0 | 3.0% |
| O=C1CCc2cc(S(=O)(=O)NC(Cc3ccccc3)C(=O)NCCC3=CCCCC3)ccc2N1 (stereo unspecified) | 13 | -8 | 2.9 | 1.2 | 1 | 1.7% |
| CCOc1ccc(C(CCc2ccccc2)NC(=O)c2ccccc2OC)cc1OCC (stereo unspecified) | -6 | -17 | -5.8 | 2.0 | -2 | 6.0%[38.3 µM] |
| Cc1cccc(C(=O)NNC(=O)C2CC2)c1 | 13 | -4 | 0.2 | 0.0 | 1 | 2.8% |
| CCn1c(CNC(=O)Cc2ccc(OC)cc2)nnc1SCC(=O)c1ccccc1 | 29 | 3 | 0.2 | 1.9 | 0 | 1.9% |
| Cc1ccc2cc3cc(C(=O)N4CCN(c5ccc(Cl)cc5)CC4)oc3nc2c1 | 4 | · | · | -1.0 | · | 1.1% |
| O=C(NCc1ccco1)c1ccc2c(c1)N(Cc1c(F)cccc1Cl)C(=O)c1ccccc1S2 | 33 | · | · | -0.4 | · | 4.9% |
| CN(C)C(=O)c1cc(C(=O)c2ccc(C(F)(F)F)cc2F)c[nH]1 | -6 | -8 | -3.6 | 0.5 | 3 | -0.2% |
| CCCC(=O)NCc1ccccc1Cl | 20 | -3 | -3.1 | -0.2 | 3 | 0.4% |
| C[C@@H]1CCCCCCCCC(=O)OCCN(C(=O)OC(C)(C)C)[C@H](C)CCCCCCCCC(=O)OCCN1C(=O)OC(C)(C)C | -12 | -10 | -2.0 | -0.3 | -28 | 0.7% |
| CCN(CC)S(=O)(=O)c1ccc2c(c1)oc(=O)n2CC(=O)NC1CCCCC1 | -16 | -7 | -1.8 | -0.4 | 3 | -1.7% |
| Cc1nnc(SCC(=O)Nc2cccnc2Cl)s1 | -5 | 0 | -0.7 | -0.1 | 8 | -0.7% |
| O=C(Nc1ccccc1-c1nnn(CC(=O)N2CCOCC2)n1)c1ccc(F)cc1 | -7 | 0 | 2.2 | 0.8 | -10 | 2.6% |
